# Screening results (PubChem BioAssay)
# StopGo reporter = lowers the luciferase signal of an FMDV 2A StopGo reporter. human cells with a luciferase reporter of 2A StopGo recoding; control for the full effect not named in the record. Potency, µM (series often up to 57.9 µM), for inactives: at the highest dose signal change, negative = less light. actives 1.2% (n = 410,000); active = well fitted falling curve with a large enough effect; inconclusive = small, poorly fitted or top-dose-only effect; inactive = no such curve, though single readings can be large or run the other way; tested in HEK293T cells; further: on the % scale 0 is the no-effect control and ±100 the full control effect; nearly all actives have a fitted effect of over 45% in size; luciferase light after 4 h
# Lassa entry inh = inhibitors of Lassa virus binding or cell entry. actives 1.2% (n = 300,000). AID 540256. Lassa virus pseudotype entry inhibition, cell reporter; control for the full effect not named in the record. Potency, µM (titrated, usually from 37.9 µM), inactives show top-dose activity change, negative = inhibition, most hits filed as inhibitors; active means well fitted inhibition curve with a large enough effect; inconclusive means small, poorly fitted or top-dose-only effect, or effect the other way; inactive means flat fitted curve, though single readings scatter; tested in HEK293 cells; further: on the % scale 0 is the no-effect control and ±100 the full control effect; nearly all actives have a fitted effect of over 50% in size; luciferase read-out
# Cruzain noTriton = inhibitors of Trypanosoma cruzi cruzain without detergent; Potency, µM, inactives show max response, negative = inhibition, most hits filed as inhibitors; purified cruzain, Z-FR-AMC fluorescence, no detergent; actives 2.3% (n = 200,000); P25779;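 further: plate controls were enzyme without inhibitor for no effect and buffer without enzyme for full effect; nearly all actives have a fitted effect of over 40% in size; top concentration of the series not given in the record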
# Target sequence (P25779 123-467 limits assumed): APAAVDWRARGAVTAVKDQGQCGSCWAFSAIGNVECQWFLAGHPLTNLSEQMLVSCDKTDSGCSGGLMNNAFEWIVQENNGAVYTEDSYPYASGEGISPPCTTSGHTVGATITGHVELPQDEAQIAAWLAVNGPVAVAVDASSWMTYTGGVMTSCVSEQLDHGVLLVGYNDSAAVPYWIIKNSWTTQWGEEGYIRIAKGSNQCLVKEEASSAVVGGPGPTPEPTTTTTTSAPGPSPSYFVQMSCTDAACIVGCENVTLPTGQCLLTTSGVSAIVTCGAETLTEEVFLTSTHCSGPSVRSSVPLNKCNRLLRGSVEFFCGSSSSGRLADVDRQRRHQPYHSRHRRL
#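 Detergent-free condition (0.00005% Triton X-100) in acetate buffer pH 5.5 with DTT. 1.5 nM enzyme and compound were pre-mixed 15 min, then 2 uM Z-FR-AMC substrate added; reaction progress from fluorescence change between first and third reads (60 s).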
# MARV entry inh = blocks Marburg virus binding to or entry into cells. actives 1.8% (n = 300,000). AID 540276. Potency, µM (doses to about 37.8 µM), inactives show at the highest dose activity change, negative = inhibition, usual class: inhibitors. Marburg virus pseudotyped entry inhibition, cell reporter; control for the full effect not named in the record; about a third of the inactives were read at about 46 µM; active = well fitted inhibition curve with a large enough effect; inconclusive = small, poorly fitted or top-dose-only effect, or effect the other way; inactive = flat fitted curve, though single readings scatter; tested in HEK293 cells; about a fifth of its hits are not listed in these tables; further: on the % scale 0 is the no-effect control and ±100 the full control effect; luciferase read-out
# RE007 growth inh = less growth of the S. pombe RE007 Vpr strain; actives 0.21% (n = 360,000); Potency, µM (highest dose often 92.2 µM), for inactives: at the highest dose activity change, negative = less growth; AID 651644; S. pombe RE007 Vpr strain, BacTiter-Glo ATP luminescence, 24 h; control for the full effect not named in the record; active = well fitted falling curve with a large enough effect; inconclusive = small, poorly fitted or top-dose-only effect; inactive = no such curve, though single readings can be large or run the other way;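 further: on the % scale 0 is the no-effect control and ±100 the full control effect; nearly all actives have a fitted effect of over 50% in size; the assay follows cell death caused by Vpr and the record does not say whether a fall means rescue or toxicity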
#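 Fission yeast strain RE007, carrying one chromosomally integrated HIV-1 vpr copy, was seeded at OD 0.01 in PMG+AL medium with 23 nL pinned compound. After 24 h at 30 °C and 99% humidity, viability was read by BacTiter-Glo luminescence.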
# NS1 inh = inhibitors of influenza NS1 protein function | S. cerevisiae slowed by influenza A NS1, growth recovery by OD600 | actives 0.4% (n = 270,000) | Potency, µM (top dose mostly 46.1 µM), without a hit: top-dose activity, positive = more growth; active means well fitted rising curve with a large enough effect; inconclusive means small, poorly fitted or top-dose-only effect; inactive means no such curve, though single readings can be large or run the other way; further: nearly all actives have a fitted effect of over 50% in size
#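 Recovery from NS1-induced slow growth read by OD600 in budding yeast switched to galactose assay medium (pH 6.0, -URA) at 1:100 dilution. Compound 23 nl per well; the matching strain lacking NS1 serves as control.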
# Cruzain Triton = cruzain (T. cruzi) inhibition with detergent; AID 1478; actives 0.43% (n = 200,000); Potency, µM, for the others: max response, negative = inhibition, hits mostly inhibitors; P25779; purified cruzain, Z-FR-AMC fluorescence, 0.01% Triton;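 further: plate controls were neutral wells for no effect and buffer without enzyme for full effect; nearly all actives have a fitted effect of over 40% in size; top concentration of the series not given in the record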
#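 Z-FR-AMC hydrolysis (2 uM substrate) by cruzain (1.5 nM) monitored kinetically at ex 360/em 450 nm after 15 min room-temperature compound exposure; 0.01% Triton X-100, pH 5.5, 5 mM DTT.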
# SARS PLpro yeast = SARS-CoV PLP inhibition in yeast; Potency, µM (titrated, usually from 32.9 µM), for inactives: at the highest dose activity, positive = growth rescue; actives 0.19% (n = 330,000); AID 485353; S. cerevisiae expressing SARS-CoV PLpro, growth rescue; control for the full effect not named in the record; active means well fitted rising curve with a large enough effect; inconclusive means small, poorly fitted or top-dose-only effect; inactive means no such curve, though single readings can be large or run the other way; further: 0% is about no effect; nearly all actives have a fitted effect of over 55% in size; growth read by luminescence after 48 h
# Starred values were filed as active, the others as inactive; u = inconclusive; x = no result given; & = joins results of further samples; [ ] = dose if it differs, or a comment. Unless noted, the call rests on the fitted dose curve; in most records, active means well fitted curve in the direction sought with a large enough effect; inconclusive means small, poorly fitted or top-dose-only effect, or another doubt; inactive means no such curve, though single readings can be large; an effect the other way counts as inactive or inconclusive. Potency means the concentration at half of the fitted maximal effect.
SMILES,StopGo reporter,Lassa entry inh,Cruzain noTriton,MARV entry inh,RE007 growth inh,NS1 inh,Cruzain Triton,SARS PLpro yeast
O=C(Nc1cccc(NC(=O)c2ccc(-c3cccc(Br)c3)o2)c1)c1ccco1,x,-27.5%,u,u,-10.7%,-49.1%,-3.0%,-7.3%
Cc1ccc(NC(=O)Cn2nnc(C(=O)NCCc3ccccc3)c2N)cc1C,-2.1%,-5.3%[46.1 µM],u,x,x,x,-0.8%,x
Cc1nc2ccccc2c(=O)n1NC(=O)c1cccc(Cl)c1,-17.4%,u,x,4.6%,8.6%,-51.5%,x,1.5%
COc1ccc(N2C(=O)CCSC23C(=O)N(Cc2ccc(F)cc2)c2ccccc23)cc1Cl (stereo not given),0.0%,u,-8.2%,x,x,x,-4.6%,x
CCOc1cccc(C(=O)Nc2cccc(C(=O)NC(C)(C)C)c2)c1,-14.3%,u,0.3%,-12.8%,-18.0%,-3.5%,9.4%,-2.0%
O=C(O)c1ccc(/C=N\Nc2ccccn2)cc1,34.0%[activator],0.5%,x,-22.1%,u,x,x,x
Cc1ccc(-c2cc(-c3ccc4c(c3)OCO4)c(C#N)c(N)n2)o1,-12.0%,u,-3.0%,u,-12.7%,-3.3%,-1.9%,-6.8%
COc1cccc(N2C(=NC(=O)C3CCCO3)SC3CS(=O)(=O)CC32)c1 (stereo not given),3.1%,x,x,x,-2.7%,6.2%,x,3.7%
COc1ccc(N2CCN(C(=O)COC(=O)CNC(=O)c3ccc(Cl)cc3Cl)CC2)cc1,6.3%,7.3%,x,26.8%,-4.6%,x,x,4.6%
O=C(Nc1ccccc1)C1CCN(S(=O)(=O)c2ccc3c(c2)CCCN3C(=O)C2CCC2)CC1,-24.7%,u,-2.0%,x,x,x,-2.8%,x
CC(C)OP(=O)(OC(C)C)C(O)c1cccc([N+](=O)[O-])c1 (stereo not given),4.5%,u,x,19.2%,-14.1%,0.1%,x,-0.2%
C[C@@H](NC(=O)[C@@H]1Cc2ccccc2CN1C(=O)OC(C)(C)C)C(=O)NCC1CCCO1 (stereo not given in full),35.4%[activator],-6.5%[46.1 µM],x,2.7%[46.1 µM],-6.0%,5.5%,x,u
CCOC(=O)N1CCN(c2cc(=O)n(-c3cccc(Br)c3)c(=O)[nH]2)CC1,-21.0%,x,6.6%,x,8.9%,u,6.0%,1.0%
CC(=O)OC1CC(c2cc(C(C)(C)C)c(O)c(C(C)(C)C)c2)=NO1 (stereo not given),-29.3%,x,x,x,-0.9%,7.7%,x,-1.5%
Cc1cc2nnc(SCC(=O)NCC3CCCO3)n2c2ccccc12 (stereo not given),-1.8%,x,x,-7.2%[46.1 µM],4.3%,x,x,-0.1%
COc1ccc(-c2cc(C(=O)O)sc2C)cc1,0.4%,4.7%,x,-18.8%[46.1 µM],25.1%,x,x,-0.6%
Cc1cc(Nc2cccc(F)c2)n2nc(C)nc2n1,-16.3%,x,10.9%,x,-10.2%,-0.3%,-1.8%,25.1%
Cc1cc(=O)n2nc(N3CCC(C(=O)NCc4ccc(F)cc4)CC3)sc2n1,-21.4%&2.1%,u,7.6%,-21.9%&-21.9%[46.1 µM],-1.0%,12.0%,-9.8%,1.2%
CCOc1ccc(C(=O)Nc2ccc3nc(SCc4ccccc4)sc3c2)cc1,0.0%,3.3%[46.1 µM],0.0%,2.0%[46.1 µM],x,x,-0.9%,x
COc1ccc(NC(=O)CN2CCN(C(=S)NC3CCCC3)CC2)cc1,-10.3%,u,x,-0.4%,7.9%,7.0%,x,0.3%
CC(=O)N1CC=CC1(CC(C)C)C(=O)NCc1cc(F)cc(C(F)(F)F)c1 (stereo not given),3.4%,-0.8%,2.9%&0.7%,-8.1%,1.3%,u,-3.1%&4.9%,2.4%
CC1CCCCN1CC(O)COCCC12CC3CC(CC(C3)C1)C2 (stereo not given),u,u,x,u,-8.0%,x,x,-4.6%
Cc1cccc(Nc2ncnc3onc(-c4ccc(Cl)cc4)c23)c1C,u,-21.9%[46.1 µM],u,x,x,x,-9.6%,x
Cc1cc(C)nc(NS(=O)(=O)c2ccc(NC(=O)c3ccco3)cc2)n1,33.3%[activator],8.5%,8.4%,u,-15.2%,-5.2%,0.0%,7.6%
COc1cc(CCC(=O)OCC(=O)Nc2ncc(Cl)cc2Cl)cc(OC)c1OC,-1.2%,-1.6%,-2.1%,u,3.5%,1.0%,-1.3%,-1.9%

# The listing continues:
SMILES,StopGo reporter,Lassa entry inh,Cruzain noTriton,MARV entry inh,RE007 growth inh,NS1 inh,Cruzain Triton,SARS PLpro yeast
COc1cccc(C2C(C#N)=C(N)N(N(C)C)C3=C2C(=O)CC(C)(C)C3)c1 (stereo not given),-0.4%,13.6%[46.1 µM],x,2.2%[46.1 µM],2.8%,-1.1%,x,0.9%
COc1nc(N/N=C/c2ccc(-c3cccc([N+](=O)[O-])c3)o2)nc(N2CCOCC2)n1,x,x,u,x,x,1.8%,u,-3.4%
Cc1cc(=O)n(C2CCS(=O)(=O)C2)[nH]1 (stereo not given),-12.9%,22.4%[46.1 µM],x,19.3%[46.1 µM],2.1%,3.3%,x,0.1%
Cc1c(Cl)cccc1-n1nc(C)c2c(C)cc(=O)n(CC(=O)NCc3ccccc3)c21,0.0%,7.4%[46.1 µM],1.3%,x,x,x,0.4%,x
CC(C)N(CCCNC(=O)Cn1c(=O)c2cccn2c2ccccc21)Cc1ccccc1,-1.2%,x,x,x,2.8%,-0.9%,x,0.3%
O=S(=O)(/N=C(/Nc1ccccn1)c1ccc(Cl)cc1)c1ccc(Cl)cc1,4.7%,16.0%,17.6%,30.3%,-1.5%,-4.6%,-2.2%,-21.8%
COc1ccc(NS(=O)(=O)c2cc3c(cc2C)N(C)CCO3)c(OC)c1,45.9%[activator],x,x,x,11.1%,3.2%,x,4.8%
CC(=O)Nc1ccc(NC(=O)CN(C)CC(=O)Nc2ccccc2Br)cc1,3.5%,-1.1%,x,-0.6%[46.1 µM],-0.2%,x,x,-1.0%
O=C(COC(=O)c1cccnc1)Nc1cccc2ccccc12,0.0%,3.1%,x,1.8%[46.1 µM],1.5%,2.2%,x,1.2%
COCCN(C(=O)CCC(=O)Nc1nccs1)C(C(=O)NC(C)(C)C)c1ccc(C)cc1 (stereo not given),-10.9%,-6.8%,x,-5.3%[46.1 µM],1.1%,-1.0%,x,0.7%
CC1CN(C(=O)c2cccc(C(=O)N3CC(C)OC(C)C3)c2)CC(C)O1 (stereo not given),-24.9%,0.3%,-2.8%,25.3%,-5.7%,-3.4%,6.7%,1.0%
CCOC(=O)C1CCN(S(=O)(=O)c2ccc(NC(C)=O)c(Cl)c2)CC1,-20.7%,2.6%,x,13.1%[46.1 µM],-13.4%,-0.1%,x,0.3%
COc1ccccc1NC(CC(=O)c1ccccc1)C(=O)OCC(=O)c1ccc(C)c(C)c1 (stereo not given),25.2%,u,-3.7%,-28.3%,2.8%,-14.2%,-1.8%,-17.6%
Cc1ccc(S(=O)(=O)N2CCC(c3nnc(-c4cccc(C)c4)o3)CC2)cc1,3.0%,-22.8%[46.1 µM],-1.0%,-3.9%[46.1 µM],x,x,-10.8%,x
N#C/C(=C(/O)c1ccc(Br)s1)c1nc2ccccc2[nH]1,-12.2%,x,x,x,-4.6%,-2.0%,x,14.9%
Cc1ccc(NC(=S)N2CCCC(c3nc4ccc(C)cc4[nH]3)C2)c(C)c1 (stereo not given),x,-12.7%,-26.0%,u,16.4%,15.3%,u,-4.8%
O=C(CCN1CCN(Cc2ccccc2)CC1)NNC(=O)Nc1cccc(Cl)c1,7.5%,-10.3%[46.1 µM],x,0.2%[46.1 µM],-1.8%,11.2%,x,-2.8%
CCOC(=O)c1c(NC(=O)c2cccnc2)sc(C)c1C,x,-11.6%,u,-17.1%,-7.0%,2.8%,-9.8%,0.2%
CCCCN(CCCC)CCNC(=O)Cc1nc2c(c(=O)[nH]c(=O)n2C)n1C,x,x,7.7%,-6.9%,x,14.4%,2.9%,3.4%
c1ccc(-c2nnc3nc(N4CCCCC4)nc(N4CCCCC4)n23)cc1,u,26.5%,x,14.2%,-14.6%,x,x,x
COc1ccc(C(=O)N(Cc2ccco2)Cc2ccc(C)o2)cc1,0.1%,-18.0%[46.1 µM],9.3%,7.8%[46.1 µM],x,x,-3.3%,x
CC(=O)N1CCCc2cc(S(=O)(=O)NCc3ccccc3Cl)ccc21,30.1%[activator],2.1%[46.1 µM],-10.4%,x,x,x,-3.0%,x
COc1cc(OC)cc(C(=O)N[C@H](C(=O)Nc2ccc(S(=O)(=O)N(C)C)cc2)C(C)C)c1,-6.3%,-18.2%,x,u,-10.8%,x,x,0.5%
COc1cc(OC)cc(C(=O)NCCNC(=O)c2ccco2)c1,1.2%,8.3%,-2.4%,7.1%,22.0%,-2.9%,1.7%,5.1%
O=C(CCC1CCN(C(=O)Cc2c(F)cccc2F)CC1)NC1CC1,-14.6%,x,x,x,6.9%,-11.2%,x,2.4%

# The listing continues.
SMILES,StopGo reporter,Lassa entry inh,Cruzain noTriton,MARV entry inh,RE007 growth inh,NS1 inh,Cruzain Triton,SARS PLpro yeast
CCn1c2ccccc2c2nnc(SCC(=O)Nc3cc(C)on3)nc21,x,1.7%,u,24.5%,-1.0%,1.1%,2.7%,7.4%
O=C(CNC(=O)c1ccc(Oc2ccccc2)cc1)OCc1ccc(Br)cc1,-8.8%,-0.9%,15.8%,1.5%,6.4%,-0.3%,-6.8%,7.0%
COC(=O)c1c(NC(=S)NN2CCOCC2)sc2c1CCCC2,-10.1%,15.1%[46.1 µM],x,0.1%[46.1 µM],22.8%,1.0%,x,-0.7%
Cc1sc(NC(=O)C2=COCCO2)nc1-c1ccc(F)cc1,-5.8%,5.4%,x,-5.8%,-13.0%,x,x,2.4%
Cc1cc(Cl)ccc1NC(=O)C1CCN(S(=O)(=O)c2ccc3[nH]c(=O)ccc3c2)CC1,-17.7%,18.4%[46.1 µM],4.6%,x,x,x,-0.7%,x
Cc1ccc(CNC(=O)CN(c2ccc(C)cc2)S(=O)(=O)c2c(C)nn(C)c2C)cc1,-8.7%&-14.6%,-8.8%[46.1 µM],u,-27.0%&-27.0%[46.1 µM],10.4%,1.1%,-2.7%,-3.4%
CCO[C@H]1OC(C(=O)N2CCCCCCC2)=C[C@@H](c2ccc(C(F)(F)F)cc2)[C@@H]1CCCO,-19.7%,x,x,x,11.8%,14.9%,x,-0.2%
